Screens from PubChem BioAssay.
PMP22 txn: Cell-based coincidence reporter assay to measure PMP22 gene transcription in S16 Pmp22-F2sN cells - Primary screen; S16 Pmp22-F2sN Schwann cells (luciferase reporters placed in the Pmp22 gene), FLuc/NLuc coincidence luminescence, 24 h; Potency, µM (highest dose often 57.5 µM), for inactives: at the highest dose activity change, negative = inhibition, actives largely listed as inhibitors; 43,000 compounds, 2% hits; AID 1508649, 2021; active = clear falling dose curves in both reporters; inconclusive = both reporters move, but less clearly or upward; inactive = either reporter flat; the % is the NLuc reporter signal; further: on the % scale 0 is the no-effect control and ±100 the full control effect; some results filed as inactive show a strong effect at the top dose
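Luminescent read-out of sequential FLuc and NLuc signals from a reporter embedded in the Pmp22 3' UTR of S16 Schwann cells, taken after 24 h compound exposure at 37C; compounds reducing both signals score as inhibitors of expression.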
HTT promoter inh: Primary qHTS for Identification of Small Molecule Inhibitors of Huntingtin Promoter Activity | HEK293 HTT promoter firefly luciferase reporter (activity 0% = vehicle and -100% = no light), 24 h | Potency, µM (doses to about 57.5 µM), for the others: at the top dose activity change, negative = inhibition, usual class: inhibitors | 48,000 compounds, 0.93% hits | AID 1508623, 2021; active means well fitted inhibition curve with a large enough effect; inconclusive means small, poorly fitted or top-dose-only effect; inactive means no such curve, though single readings can be large or run the other way; further: nearly all actives have a fitted effect of over 50% in size
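HEK293 cells carrying firefly luciferase reporters were seeded at 2,500 per well in Opti-MEM and cultured for 24 h. They were then treated with compounds at up to 57.5 uM final for 24 h at 37 degrees C before Dual-Glo luminescence readout.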
The depositor's hits bear a star; & = joins results of further samples; [ ] = dose if it differs, or a comment. Potency means the concentration at half of the fitted maximal effect.

What do the screens show for `CCCCNc1cc(NC2CCCCC2)c2c3c(onc13)-c1ccccc1C2=O`?
PMP22 txn: -24%; HTT promoter inh: -31%

What do the screens show for `CCOC(=O)c1cc2c(=O)n3ccccc3nc2n(Cc2ccco2)c1=NC(=O)c1ccccc1OC`?
PMP22 txn: inconclusive; HTT promoter inh: -7%

What do the screens show for `COc1ccccc1-c1nc(S(=O)(=O)c2ccccc2)c(N2CCC(C)CC2)o1`?
PMP22 txn: inconclusive; HTT promoter inh: inconclusive

Results for Nc1nc(Nc2cccc(Cl)c2)sc1C(=O)c1ccc(F)cc1 ?
PMP22 txn: inconclusive; HTT promoter inh: -24%

Results for CC(C)(C)c1ccc(C(=O)NC(Cc2c[nH]c3ccccc23)C(=O)OCC(=O)c2ccc(Br)cc2)cc1 (centres undefined) ?
PMP22 txn: -28%; HTT promoter inh: -17%

How did Cc1nn(CC(=O)N2CCCCC2)c(=O)c2cc3occc3n12 do in these assays?
PMP22 txn: -29%; HTT promoter inh: -4%

Results for Cc1ccc(NC(=O)c2c(C)oc3ncnc(N4CCCCC4)c23)cc1Cl ?
PMP22 txn: -9%; HTT promoter inh: inconclusive

What do the screens show for `Cc1cccc(-c2nc3c(cnn3-c3ccccc3)c(=O)n2-c2ccc(Br)cc2)c1`?
PMP22 txn: -24%; HTT promoter inh: -7%

What do the screens show for `O=C(NC1CCCCC1)c1c[nH]c2ccc(S(=O)(=O)Nc3ccccc3F)cc2c1=O`?
PMP22 txn: 3%; HTT promoter inh: -15%

What do the screens show for `COC(=O)c1cc2oc(C)cc2n1Cc1cccc(Cl)c1`?
PMP22 txn: inconclusive; HTT promoter inh: -27%

Results for Cc1c(C(=O)NCc2ccccc2Cl)cccc1-n1cnc2cccnc21 ?
PMP22 txn: inconclusive; HTT promoter inh: -23%

What do the screens show for `CCc1ccccc1NC(=O)Cn1c(=O)ccc2cc(S(=O)(=O)N3CCC(C)CC3)ccc21`?
PMP22 txn: -26%; HTT promoter inh: -29%

How did CCN(c1ccccc1C)S(=O)(=O)c1ccc(N2CCCCS2(=O)=O)cc1 do in these assays?
PMP22 txn: inconclusive; HTT promoter inh: -15%

How did O=C(CN1CCN(Cc2ccc(F)cc2)C1=O)NCc1ccc(F)cc1 do in these assays?
PMP22 txn: -21%; HTT promoter inh: -6%

What do the screens show for `O=C(Nc1ccc(F)c(Cl)c1)N1CCC(CN2CCOCC2)CC1`?
PMP22 txn: -20%; HTT promoter inh: -14%

Results for CCc1ccccc1NC(=O)CN1C(=O)CCSc2ccc(S(=O)(=O)N3CCCC3)cc21 ?
PMP22 txn: -6%; HTT promoter inh: -30%

Results for CCOC(=O)CNC(=O)N1CCc2cc(S(=O)(=O)N3CCC(C)CC3)ccc21 ?
PMP22 txn: -19%; HTT promoter inh: -17%

What do the screens show for `COc1ccc(NC(=O)C(Cc2ccccc2)NS(=O)(=O)c2ccc3c(c2)oc(=O)n3C)c(OC)c1` (centres undefined)?
PMP22 txn: -28%; HTT promoter inh: -24%

What do the screens show for `CC(C)CN(CC(C)C)C(=O)C1CCCN(S(=O)(=O)c2ccc3c(c2)oc(=O)n3C)C1` (centres undefined)?
PMP22 txn: -6%; HTT promoter inh: -8%

What do the screens show for `CCOC(=O)Cc1c(C(=O)OCC)nnc2c(-c3ccccc3)c(C)nn12`?
PMP22 txn: -29%; HTT promoter inh: -14%

Among those listed so far, two have an NH in an aromatic ring.
Results for CC(C)(C)c1ccc(C(=O)NC(Cc2c[nH]c3ccccc23)C(=O)OCC(=O)c2ccc(Br)cc2)cc1 (centres undefined) ?
PMP22 txn: -28%; HTT promoter inh: -17%

What do the screens show for `O=C(NC1CCCCC1)c1c[nH]c2ccc(S(=O)(=O)Nc3ccccc3F)cc2c1=O`?
PMP22 txn: 3%; HTT promoter inh: -15%

Remaining list, next part
Results for COc1ccc(CNC(=O)c2cccc(N3CCCS3(=O)=O)c2)cc1OC ?
PMP22 txn: inconclusive; HTT promoter inh: inconclusive

How did COc1ccc(CCN2C(=O)N(c3ccc(F)cc3)C(=O)C2CC(=O)Nc2ccccc2)cc1OC (centres undefined) do in these assays?
PMP22 txn: 7%; HTT promoter inh: -9%

What do the screens show for `Cc1ccc(C(Nc2ccccn2)c2ccc3cccnc3c2O)cc1` (centres undefined)?
PMP22 txn: inconclusive; HTT promoter inh: inconclusive

How did Cc1cccc(CNS(=O)(=O)c2csc(C(N)=O)c2)c1 do in these assays?
PMP22 txn: inconclusive; HTT promoter inh: -40%

What do the screens show for `O=C(CCn1c(=O)c2cccn2c2cccnc21)NCc1ccccc1Cl`?
PMP22 txn: -3%; HTT promoter inh: 5%

How did CC(=O)N1CCc2cc(S(=O)(=O)NC(Cc3ccccc3)C(=O)NCc3ccccc3)ccc21 (centres undefined) do in these assays?
PMP22 txn: -8%; HTT promoter inh: -18%

Results for Cc1oc(-c2ccc(C(=O)NCc3ccc(N(C)C)cc3)cc2)nc1COc1ccccc1 ?
PMP22 txn: -31%; HTT promoter inh: -20%[11.5 µM]

What do the screens show for `CC1(C)C(=O)N(CCN2CCC(C(=O)c3ccc(F)cc3)CC2)c2ccccc21`?
HTT promoter inh: -16%

What do the screens show for `CCn1c(=O)c2c(nc3n2CCN3c2ccc(OC)cc2)n(C)c1=O`?
PMP22 txn: -19%; HTT promoter inh: 4%

How did COc1ccc(OC)c(C2CC(=O)Nc3ccc4ccccc4c32)c1 (centres undefined) do in these assays?
PMP22 txn: -24%; HTT promoter inh: 4%

What do the screens show for `CCCCNC(=O)CSc1nc2nc(C)c(Cc3ccccc3C)c(C)n2n1`?
PMP22 txn: -1%; HTT promoter inh: -22%

Results for COCCN(CCOC)S(=O)(=O)c1ccc(C(=O)Nc2sc3c(c2C(=O)OC)CCN(C)C3)cc1 ?
PMP22 txn: -14%; HTT promoter inh: -11%

What do the screens show for `Cc1cc(-c2nc3ncccc3o2)ccc1NC(=O)COc1ccc(C(C)(C)C)cc1`?
PMP22 txn: inconclusive; HTT promoter inh: 10%

What do the screens show for `CCC(CC)C(=O)N1CCc2cc(OC)c(OC)cc2C1COc1ccc(F)cc1` (centres undefined)?
PMP22 txn: -7%; HTT promoter inh: inconclusive

How did NS(=O)(=O)c1ccc(CCNC(=O)c2nc(SCc3ccccc3F)ncc2Cl)cc1 do in these assays?
PMP22 txn: 6%; HTT promoter inh: inconclusive

What do the screens show for `O=C(NCC(c1cccnc1)N1CCOCC1)C(=O)Nc1ccc(Cl)cc1` (centres undefined)?
PMP22 txn: -3%; HTT promoter inh: -11%

How did Cc1cc(O)c(C(c2ccccc2)N2CCN(c3ccccc3F)CC2)c(=O)n1Cc1ccco1 (centres undefined) do in these assays?
PMP22 txn: inconclusive; HTT promoter inh: -5%

What do the screens show for `COC(=O)c1cnc(N2CCN(c3ccc(F)cc3)CC2)c2ccccc12`?
PMP22 txn: inconclusive; HTT promoter inh: -15%

Results for COc1ccccc1NC(=O)c1oc2ccccc2c1NC(=O)C1CCCCC1 ?
PMP22 txn: -9%; HTT promoter inh: -8%

Results for COc1ccc(NC(=O)c2ccco2)cc1NC(=O)COc1cc(C)ccc1C(C)C ?
PMP22 txn: inconclusive; HTT promoter inh: inconclusive

How did CCC(C)NC(=O)c1sc2nc3n(c(=O)c2c1C)CCC3 (centres undefined) do in these assays?
PMP22 txn: -4%; HTT promoter inh: 17%

How did CCOc1ccc(CCNC(=O)CSc2nc3ccccc3nc2Cc2ccc(C)cc2)cc1OCC do in these assays?
PMP22 txn: -36%; HTT promoter inh: -9%

Results for CCOC(=O)c1cc(-c2ccccc2)n(-c2cccc(C(=O)Nc3cccc(F)c3)c2)c1C ?
PMP22 txn: -12%; HTT promoter inh: inconclusive

How did COc1ccc(OC(C)C(=O)NCc2nc(-c3ccc(Cl)cc3)no2)cc1 (centres undefined) do in these assays?
PMP22 txn: -14%; HTT promoter inh: inconclusive

Results for O=C(Nc1sc2c(c1C(=O)NCc1cccnc1)CCCC2)c1cc(=O)c2ccccc2o1 ?
PMP22 txn: 6%; HTT promoter inh: -7%

Results for COc1ccc(-c2nc(CNS(=O)(=O)c3ccc(C)cc3)cs2)cc1 ?
PMP22 txn: -18%; HTT promoter inh: inconclusive

Results for CCCNC(=O)CN1CCN(c2ccc(NC(=O)c3ccc(OC)cc3)cc2C(=O)O)CC1 ?
PMP22 txn: -15%; HTT promoter inh: -12%

What do the screens show for `Cc1cccc2sc(N(Cc3cccnc3)C(=O)CCc3ccccc3)nc12`?
PMP22 txn: inconclusive; HTT promoter inh: -25%

What do the screens show for `O=C(CC(NCc1cccnc1)C(=O)O)Nc1ccc(O)cc1` (centres undefined)?
PMP22 txn: -16%; HTT promoter inh: -22%

Results for COc1ccc(N2CCN(CCCNC(=O)Cn3c(-c4cccs4)cc4ccccc43)CC2)cc1 ?
PMP22 txn: inconclusive; HTT promoter inh: inconclusive

Results for Cc1ccc(CNC(=O)c2ccc(CSc3nc4ccncc4n3Cc3ccc(C)cc3)cc2)cc1 ?
PMP22 txn: inconclusive; HTT promoter inh: inconclusive

How did CCOc1ccc(-n2c(SCC(=O)Nc3cc(C)on3)nc3c([nH]c4ccccc43)c2=O)cc1 do in these assays?
PMP22 txn: -16%; HTT promoter inh: -25%

How did O=C(NC1CCCCC1)c1ccc(CSc2nc3ccncc3n2Cc2cccc(F)c2)cc1 do in these assays?
PMP22 txn: -6%; HTT promoter inh: inconclusive

Results for Cc1cc(C)c(NC(=O)c2sc3nc(C)cc(C)c3c2NC(=O)c2ccccc2)c(C)c1 ?
PMP22 txn: -12%; HTT promoter inh: -9%

What do the screens show for `CCOC(=O)N1CCc2c(sc(NCc3ccc(OC)c(OC)c3OC)c2C(=O)Nc2ccc(OC)cc2OC)C1`?
PMP22 txn: -29%; HTT promoter inh: inconclusive

What do the screens show for `CCOC(=O)CSc1nc2ccc(NC(=O)COc3ccccc3)cc2s1`?
PMP22 txn: -1%; HTT promoter inh: 1%

What do the screens show for `Cc1cc(C)cc(OCC(=O)Nc2c(C(=O)c3ccccc3)oc3ccccc23)c1`?
PMP22 txn: 1%; HTT promoter inh: 0%

How did O=C(NCC(c1ccc2c(c1)OCO2)N1CCOCC1)c1ccc(F)cc1 (centres undefined) do in these assays?
PMP22 txn: -10%; HTT promoter inh: -8%

How did COc1ccc(CNC(=O)c2sc3nc4n(c(=O)c3c2C)CCC4)cc1 do in these assays?
PMP22 txn: -16%; HTT promoter inh: 14%

What do the screens show for `COc1ccccc1-c1nc(-c2ccc(Br)o2)no1`?
PMP22 txn: -14%; HTT promoter inh: 24%

Results for CCOc1ccc(-c2cc(C(=O)N3CCN(c4ccc(C)cc4)C(C)C3)c3ccccc3n2)cc1 (centres undefined) ?
PMP22 txn: -6%; HTT promoter inh: 9%

How did O=c1ccc(-c2ccccc2)nn1Cc1c(F)cccc1Cl do in these assays?
PMP22 txn: -39%; HTT promoter inh: -22%

How did CC(=O)OCCN1C(=O)c2c(C)nc3ccc(S(=O)(=O)N4CCOCC4)cc3c2C1=O do in these assays?
HTT promoter inh: 3%

How did COc1ccccc1CCNc1ncnc2c1nnn2C do in these assays?
PMP22 txn: -53%; HTT promoter inh: -12%

Results for O=C(O)CSCC(=O)NC1CCSC1=O (centres undefined) ?
HTT promoter inh: -2%&2%

What do the screens show for `CCCCN(CCCC)CCCNC(=O)Cn1cc2c(n1)-c1c(oc(C(=O)N3CCCC3)c1C)CC2`?
PMP22 txn: inconclusive; HTT promoter inh: -9%

What do the screens show for `CC1CCN(S(=O)(=O)c2ccc3c(c2)CCC(=O)N3CC(=O)Nc2cccc(C#N)c2)CC1`?
PMP22 txn: -3%; HTT promoter inh: -20%

Results for CCCCNc1cc(C(=O)O)cc(S(N)(=O)=O)c1Oc1ccccc1 ?
HTT promoter inh: 9%&14%

How did Cc1ccc(-n2c(=O)c3cccnc3n2CC(=O)Nc2cc(C)cc(C)c2)cc1 do in these assays?
PMP22 txn: -20%; HTT promoter inh: -24%

What do the screens show for `Cc1oc(-c2ccc(C(=O)Nc3cc(F)ccc3F)cc2)nc1COc1ccccc1`?
PMP22 txn: -6%; HTT promoter inh: -36%

Structures shown so far that contain two or more sulfur atoms:
How did CCN(c1ccccc1C)S(=O)(=O)c1ccc(N2CCCCS2(=O)=O)cc1 do in these assays?
PMP22 txn: inconclusive; HTT promoter inh: -15%

Results for CCc1ccccc1NC(=O)CN1C(=O)CCSc2ccc(S(=O)(=O)N3CCCC3)cc21 ?
PMP22 txn: -6%; HTT promoter inh: -30%

How did Cc1cccc(CNS(=O)(=O)c2csc(C(N)=O)c2)c1 do in these assays?
PMP22 txn: inconclusive; HTT promoter inh: -40%

Results for COCCN(CCOC)S(=O)(=O)c1ccc(C(=O)Nc2sc3c(c2C(=O)OC)CCN(C)C3)cc1 ?
PMP22 txn: -14%; HTT promoter inh: -11%

How did NS(=O)(=O)c1ccc(CCNC(=O)c2nc(SCc3ccccc3F)ncc2Cl)cc1 do in these assays?
PMP22 txn: 6%; HTT promoter inh: inconclusive

Results for COc1ccc(-c2nc(CNS(=O)(=O)c3ccc(C)cc3)cs2)cc1 ?
PMP22 txn: -18%; HTT promoter inh: inconclusive

What do the screens show for `CCOC(=O)CSc1nc2ccc(NC(=O)COc3ccccc3)cc2s1`?
PMP22 txn: -1%; HTT promoter inh: 1%

Results for O=C(O)CSCC(=O)NC1CCSC1=O (centres undefined) ?
HTT promoter inh: -2%&2%
